DUX4 inh: DUX4-mediated transcription inhibition; activity change, negative = inhibition, % (no concentration beside the values); hit rate 0.8% among 37,000; 293T-iDUX4 ZSCAN4-Gaussia luciferase reporter, 24 h; stronger effect = lower value;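 active means -10% or lower and over 25 points stronger than a control reporter; inconclusive means -10% or lower with a smaller gap; inactive means above -10%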;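 further: 0% = median of neutral control wells and -100% = median of positive control wells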
DUX4 inh difference: second read-out of DUX4 inh, no call of its own (marks repeat the call); Gaussia minus Italica difference, %; measured here: selective DUX4 reporter inhibition;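 worked out from the two reporters; negative = selective loss of the DUX4 reporter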
DUX4 inh control: further read-out of DUX4 inh, marked with its call; activity change, negative = inhibition, %; measured here: Italica tet-on control reporter;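 0 = neutral control and -100 = positive control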
Active calls of the source: *; ? = inconclusive; nt = no result given; & = joins results of further samples. This is a subset, so the mix of outcomes need not match the whole.

1: CC=Cc1ccc2n(c1=O)C[C@@H]1[C@@H](CO)[C@H](C(=O)NCc3ccc4c(c3)OCO4)[C@H]2N1C(=O)COC (mixture of isomers)
2: CCCN(C)C[C@@H]1Oc2cc(Br)ccc2S(=O)(=O)N([C@H](C)CO)C[C@@H]1C
3: C[C@@H]1CN([C@@H](C)CO)C(=O)c2ccccc2-c2ccccc2CO[C@@H]1CN(C)CC1CC1
4: CO[C@H]1CN(C)C(=O)c2ccc(NC(C)=O)cc2OC[C@@H](C)N(C(=O)C2CCOCC2)C[C@H]1C
5: CCCNC(=O)N1[C@@H](CO)[C@@H]2c3ccccc3N(C(=O)Nc3ccc(F)cc3)C[C@@H]21
6: COCCNC(=O)C[C@H]1C[C@@H]2c3cc(NC(=O)Nc4ccccc4F)ccc3O[C@@H]2[C@H](CO)O1
7: COc1ccccc1-c1ccc([C@@H]2[C@@H](CO)N3CCCCN(C(=O)c4cccnc4)C[C@H]23)cc1
8: O=C(Cc1cccnc1)N1CC2(C1)[C@H](c1ccccc1)[C@@H](CO)N2C(=O)C1CCOCC1

entry no.,1,2,3,4,5,6,7,8
DUX4 inh,-2,-6,7,-6,-4,0,?,6
DUX4 inh difference,-4,-2,10,-8,-9,0,nt,3
DUX4 inh control,1.2,-3.7,-3.5,2.4,4.8,0.1,nt,2.8

9: Cc1noc(C)c1NC(=O)N(C)C[C@H]1Oc2c(NC(=O)C3CCOCC3)cccc2C(=O)N([C@H](C)CO)C[C@@H]1C
10: CCCNC(=O)Nc1ccc2c(c1)C(=O)N(C)C[C@@H](OC)[C@@H](C)CN[C@H](C)CO2
11: COc1ccc(-c2ccccc2[C@@H]2[C@H](C#N)N(C(=O)c3cccnc3)[C@H]2CO)cc1
12: C[C@@H]1CCCCO[C@@H](CN(C)C(=O)CCC(F)(F)F)[C@H](C)CN([C@@H](C)CO)C(=O)c2cc(NC(=O)Cc3ccccc3)ccc2O1
13: O=C(C1CCC1)N1CC2(C1)[C@H](c1ccccc1)[C@@H](CO)N2Cc1ccc(Cl)cc1
14: CCCC#Cc1ccc2c(c1)[C@@H]1[C@@H](CCN1C(=O)CC1CC1)[C@@H](CO)N2C
15: CCC(=O)N(C)C[C@H]1[C@H](c2ccccc2)[C@@H](CO)N1C(=O)Cc1ccncc1
16: N#C[C@H]1[C@@H](c2ccccc2C2=CCCC2)[C@@H](CO)N1C(=O)C1CC1

entry no.,9,10,11,12,13,14,15,16
DUX4 inh,-2,-6,17,3,?,-1,-2,7
DUX4 inh difference,4,-5,16,1,nt,-4,-5,-5
DUX4 inh control,-5.5,-1.1,0.7,2.0,nt,2.9,2.2,12

17: CN(C)C(=O)[C@H]1[C@H](CO)[C@H]2Cn3c(ccc(C4=CCCC4)c3=O)[C@@H]1N2C(=O)c1ccccc1
18: O=C(NC[C@H]1[C@H](c2ccccc2)[C@@H](CO)N1Cc1cccnc1)c1ccccn1
19: C[C@@H]1CN([C@H](C)CO)C(=O)CCCn2cc(nn2)CO[C@@H]1CN(C)Cc1cccc(C(=O)O)c1
20: O=C(Nc1ccccc1F)N1[C@H](CO)[C@@H]2c3ccccc3NC[C@@H]21
21: COc1ccc(-c2ccc([C@H]3[C@H](C#N)N[C@@H]3CO)cc2)cc1
22: O=C(c1cccc(F)c1)N1CCCCN2[C@H](C1)[C@H](c1ccc(/C=C/c3ccccc3)cc1)[C@@H]2CO
23: O=C(Nc1ccccc1Cl)N1[C@@H]2CNc3ccccc3[C@@H]2[C@@H]1CO
24: CCCN1[C@@H]2c3cccc(=O)n3C[C@@H]2[C@@H](CO)[C@@H]1C(=O)N1CCCCC1

entry no.,17,18,19,20,21,22,23,24
DUX4 inh,-2,2,6,7,-2,-9,5,2
DUX4 inh difference,-3,-3,0,-1,-2,30,-2,8
DUX4 inh control,0.7,4.8,6.0,8.5,0.0,-39,7.1,-5.7

25: C[C@H]1CN([C@@H](C)CO)C(=O)CCCn2nncc2CO[C@@H]1CN(C)Cc1ccc(O)cc1
26: C[C@H](CO)N1C[C@H](C)[C@@H](CN(C)Cc2ccc3c(c2)OCO3)OCc2ccccc2-c2ccccc2C1=O
27: CCS(=O)(=O)Nc1ccc2c(c1)C(=O)N(C)[C@@H]1CC[C@H](CC(=O)NCCOC)O[C@@H]1CO2
28: CC(C)CC#Cc1ccc([C@H]2[C@H](CO)N3C(=O)CN(C(=O)CN4CCOCC4)C[C@@H]23)cc1
29: CN(C)C(=O)[C@H]1[C@H](CO)[C@H]2Cn3c(cccc3=O)[C@@H]1N2CC1CCOCC1
30: Cc1ccccc1-c1ccc2c(c1)O[C@H](CN(C)Cc1ccncc1)[C@H](C)CN([C@H](C)CO)S2(=O)=O
31: CN(C)C(=O)C[C@@H]1C=C[C@@H](NC(=O)c2ccc(F)cc2)[C@H](CO)O1
32: Cc1ccc(-c2ccc(C3[C@H]4CNC[C@@H]3N4S(=O)(=O)c3ccccc3C)cc2)cc1 (stereo partly specified)

entry no.,25,26,27,28,29,30,31,32
DUX4 inh,0,8,-3,4,11,-1,-5,24&3
DUX4 inh difference,-2,6,1,-5,8,-4,-2,25&17
DUX4 inh control,2.2,2.6,-4.2,8.7,3.4,3.6,-3.2,-1.4&-14

33: COc1ccc(C#Cc2ccc([C@@H]3[C@@H](CO)N4CCCCN(S(=O)(=O)c5ccccc5)C[C@H]34)cc2)cc1
34: CC(=O)N1[C@@H](CO)[C@@H]2c3ccccc3N(S(=O)(=O)c3cccc(C)c3)C[C@@H]21
35: O=C(Nc1ccc(F)cc1)N1CC(=O)N2[C@H](CO)[C@@H](c3ccc(-c4cccc(F)c4)cc3)[C@H]2C1
36: COC(=O)[C@@H]1[C@@H](CO)[C@@H]2Cn3c(ccc(-c4ccncc4)c3=O)[C@@H]2N1CC1CCCCC1
37: O=C(Nc1cc(F)ccc1F)N1CC(=O)N2[C@H](C1)[C@@H](c1ccc(/C=C/c3ccccc3)cc1)[C@@H]2CO
38: O=C(NCC[C@H]1CC[C@@H](NC(=O)C2CC2)[C@@H](CO)O1)Nc1ccc(C(F)(F)F)cc1
39: CC(=O)N(C)C[C@H]1Oc2cc(C#Cc3ccc(F)cc3)ccc2S(=O)(=O)N([C@@H](C)CO)C[C@H]1C
40: CC(C)CC#Cc1ccc([C@@H]2[C@H]3CN(S(=O)(=O)c4ccccc4)CC(=O)N3[C@H]2CO)cc1

entry no.,33,34,35,36,37,38,39,40
DUX4 inh,-5,-2,-2,-4,-1,5&1,-3,-4
DUX4 inh difference,-4,2,5,3,-1,4&3,-4,-6
DUX4 inh control,-1.5,-4.6,-6.6,-7.2,-0.1,1.5&-1.6,1.5,1.6

41: COc1cccc(S(=O)(=O)N(C)C[C@@H]2OCc3cn(nn3)CCCC(=O)N([C@@H](C)CO)C[C@H]2C)c1
42: CO[C@@H]1CN(C)C(=O)c2cc(NC(=O)c3ccc4c(c3)OCO4)ccc2OC[C@H](C)N(CCC(F)(F)F)C[C@@H]1C
43: Cc1noc(C)c1NC(=O)N(C)C[C@H]1Oc2c(NS(=O)(=O)c3ccc(Cl)cc3)cccc2C(=O)N([C@H](C)CO)C[C@@H]1C
44: O=C(NCC[C@@H]1CC[C@H](NS(=O)(=O)c2cccc(Cl)c2)[C@@H](CO)O1)c1cnccn1
45: O=C(C[C@@H]1CC[C@H]2[C@@H](COC[C@H](O)CN2Cc2ccc3c(c2)OCO3)O1)N1CCOCC1
46: O=C(NC1Cc2ccccc2C1)[C@@H]1[C@@H](CO)[C@@H]2Cn3c(cccc3=O)[C@@H]2N1C(=O)C1CCC1
47: O=C(C1CCC1)N1CC2(C1)[C@H](c1ccccc1)[C@@H](CO)N2C(=O)c1cccnc1
48: Cc1noc(C)c1NC(=O)Nc1ccc2c(c1)C(=O)N([C@H](C)CO)C[C@@H](C)[C@@H](CN(C)Cc1ccc3c(c1)OCO3)OCCCC[C@@H](C)O2

entry no.,41,42,43,44,45,46,47,48
DUX4 inh,1,?,-2,1,14,-2,10,2
DUX4 inh difference,0,nt,-5,6,8,-4,8,1
DUX4 inh control,1.7,nt,3.5,-5.7,5.9,2.3,2.0,1.6

49: O=C(C[C@@H]1CC[C@@H]2[C@H](COC[C@@H](O)CN2Cc2cc(F)ccc2F)O1)NCc1ccc(Oc2ccccc2)cc1
50: O=C(N[C@H]1C=C[C@@H](CC(=O)N2CCC(Cc3ccccc3)CC2)O[C@H]1CO)c1cnccn1
51: COc1ccc(CN(C)C[C@H]2Oc3ccc(NC(=O)Nc4ccc5c(c4)OCO5)cc3CC(=O)N([C@@H](C)CO)C[C@H]2C)cc1
52: O=C(C[C@@H]1C=C[C@@H](NC(=O)Nc2ccc(C(F)(F)F)cc2)[C@@H](CO)O1)NCc1ccccn1
53: O=C(NC1CCC1)[C@H]1[C@H](CO)[C@H]2Cn3c(cccc3=O)[C@@H]1N2Cc1cc(F)ccc1F
54: C[C@@H]1CN([C@H](C)CO)S(=O)(=O)c2ccc(-c3ccncc3)cc2O[C@@H]1CN(C)S(C)(=O)=O
55: COCCNC(=O)C[C@@H]1CC[C@@H]2[C@H](COC[C@@H](O)CN2Cc2cccc(-c3ccncc3)c2)O1
56: C[C@H]1CN([C@@H](C)CO)C(=O)Cc2cc(NS(=O)(=O)c3cn(C)cn3)ccc2O[C@H]1CN(C)Cc1ccc2c(c1)OCO2

entry no.,49,50,51,52,53,54,55,56
DUX4 inh,?,-2,-3,-1,4,-9,4,3
DUX4 inh difference,nt,-4,-4,2,11,-4,15,2
DUX4 inh control,nt,1.8,1.4,-2.7,-7.0,-4.3,-11,1.4

57: CNC[C@H]1OCCCC[C@H](C)Oc2ccc(NC(=O)CCC(F)(F)F)cc2C(=O)N([C@H](C)CO)C[C@@H]1C
58: COc1ccc2c3c(n(C)c2c1)[C@@H](CO)N(Cc1ccc(F)cc1)CC31CN(CC2CCOCC2)C1
59: C/C=C/c1ccc([C@@H]2[C@@H](CO)N3CCCCN(CCC(F)(F)F)C[C@@H]23)cc1
60: c1ccc(CN2[C@@H]3CNC[C@H]2C3c2ccc(-c3cccnc3)cc2)nc1 (stereo partly specified)
61: O=C(C[C@@H]1CC[C@@H]2[C@H](COC[C@H](O)CN2Cc2cccc(C(F)(F)F)c2)O1)NCc1ccc(Cl)cc1
62: CCCNC(=O)Nc1ccc2c(c1)C(=O)N(C)C[C@H](OC)[C@@H](C)CN(Cc1ccccn1)[C@@H](C)CO2
63: COC(=O)C[C@@H]1CC[C@H]2[C@@H](COc3ccc(NC(=O)Nc4cccc(F)c4)cc3C(=O)N2C)O1
64: COC(=O)C[C@H]1CC[C@@H]2[C@H](COC[C@@H](O)CN2C(=O)Nc2cccc(F)c2)O1

entry no.,57,58,59,60,61,62,63,64
DUX4 inh,0,-8,?,15,?,1,9,2
DUX4 inh difference,-2,1,nt,2,nt,-3,7,-3
DUX4 inh control,1.9,-8.6,nt,13,nt,3.6,1.7,5.3

65: COc1cccc(S(=O)(=O)N[C@@H]2C=C[C@H](CC(=O)NCc3ccncc3)O[C@@H]2CO)c1
66: C[C@H]1CN([C@@H](C)CO)S(=O)(=O)c2ccc(C3=CCCCC3)cc2O[C@H]1CN(C)C(=O)Nc1ccc2c(c1)OCO2
67: C/C=C/c1ccc2c(c1)O[C@H](CN(C)C(=O)NCCC)[C@H](C)CN([C@H](C)CO)S2(=O)=O
68: CCCNC(=O)N1CCC2(CC1)CN(Cc1ccccn1)[C@H](CO)c1c2c2ccc(OC)cc2n1C
69: COc1ccc(-c2ccc(C3[C@@H]4CN(Cc5cc(OC)cc(OC)c5)C[C@H]3N4)cc2)cc1 (stereo partly specified)
70: O=C(C1CCCCC1)N1CC2(C1)[C@@H](c1ccccc1)[C@@H](CO)N2CCC(F)(F)F
71: C[C@@H]1CCCCO[C@H](CN(C)C(=O)NC2CCCCC2)[C@@H](C)CN([C@H](C)CO)C(=O)c2cc(NC(=O)Cc3ccccc3)ccc2O1
72: C[C@H](CO)N1C[C@H](C)[C@H](CN(C)Cc2ccncc2)Oc2c(NC(=O)Nc3cccc4ccccc34)cccc2C1=O
73: O=C(C[C@@H]1CC[C@@H]2[C@H](COC[C@H](O)CN2C(=O)Nc2cccc(F)c2)O1)NCc1ccccc1Cl
74: CO[C@@H]1CN(C)C(=O)c2cc(NC(=O)c3cnccn3)ccc2OC[C@@H](C)N(CCc2ccccc2)C[C@@H]1C
75: CC(=O)N1CC(=O)N2[C@H](C1)[C@@H](c1ccc(-c3ccc(C#N)cc3)cc1)[C@@H]2CO

entry no.,65,66,67,68,69,70,71,72,73,74,75
DUX4 inh,-3,-1,-1,22,?,?,4,-2,-5,3,-4
DUX4 inh difference,-1,-3,0,13,nt,nt,0,-4,-10,3,-11
DUX4 inh control,-2.4,1.4,-1.3,9.4,nt,nt,4.2,1.9,5.0,-0.5,6.7

Some of the entries so far, with each value named:
75	CC(=O)N1CC(=O)N2[C@H](C1)[C@@H](c1ccc(-c3ccc(C#N)cc3)cc1)[C@@H]2CO
  DUX4 inh = -4; DUX4 inh difference = -11; DUX4 inh control = 6.7

65	COc1cccc(S(=O)(=O)N[C@@H]2C=C[C@H](CC(=O)NCc3ccncc3)O[C@@H]2CO)c1
  DUX4 inh = -3; DUX4 inh difference = -1; DUX4 inh control = -2.4

74	CO[C@@H]1CN(C)C(=O)c2cc(NC(=O)c3cnccn3)ccc2OC[C@@H](C)N(CCc2ccccc2)C[C@@H]1C
  DUX4 inh = 3; DUX4 inh difference = 3; DUX4 inh control = -0.5

68	CCCNC(=O)N1CCC2(CC1)CN(Cc1ccccn1)[C@H](CO)c1c2c2ccc(OC)cc2n1C
  DUX4 inh = 22; DUX4 inh difference = 13; DUX4 inh control = 9.4

Screening results: PubChem, Broad Institute
